From PubChem
Menin MLL FP FL: qHTS Assay for Inhibitors Targeting the Menin-MLL Interaction in MLL Related Leukemias: Competition With Fluorescein Labeled MLL-derived Peptide | 290,000 tested, under 10 active | Fluorescence polarization, fluorescein-MLL peptide displacement from menin | FP activity change, % at 61.4 µM | AID 1766, 2009; inconclusive = falling polarisation curve, or a change in total fluorescence; inactive = total fluorescence flat and polarisation flat or rising; no compound was filed as active; the % refers to the polarisation; negative = inhibition;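 further: % of control where 0% means no effect; inhibitors lower the polarisation; unlabelled MLL peptide was the positive control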
TRPML1 ag: qHTS for Agonists of the Human Mucolipin Transient Receptor Potential 1 (TRPML1); Mucolipin-1 (Homo sapiens), Q9GZU1; TRPML1-expressing cells, Ca2+ dye fluorescence, FDSS; host cell line not named in the record; reference of the full effect not given here; activation, % (concentration not given with the values); hit rate 0.12% among 410,000; in the data active = activation above about 50%; inconclusive = about 30% to 50%; inactive = below about 30%; further: 0% is about no effect; the text of the record puts the active cut at 80%
Target sequence (Q9GZU1 whole entry, looked up): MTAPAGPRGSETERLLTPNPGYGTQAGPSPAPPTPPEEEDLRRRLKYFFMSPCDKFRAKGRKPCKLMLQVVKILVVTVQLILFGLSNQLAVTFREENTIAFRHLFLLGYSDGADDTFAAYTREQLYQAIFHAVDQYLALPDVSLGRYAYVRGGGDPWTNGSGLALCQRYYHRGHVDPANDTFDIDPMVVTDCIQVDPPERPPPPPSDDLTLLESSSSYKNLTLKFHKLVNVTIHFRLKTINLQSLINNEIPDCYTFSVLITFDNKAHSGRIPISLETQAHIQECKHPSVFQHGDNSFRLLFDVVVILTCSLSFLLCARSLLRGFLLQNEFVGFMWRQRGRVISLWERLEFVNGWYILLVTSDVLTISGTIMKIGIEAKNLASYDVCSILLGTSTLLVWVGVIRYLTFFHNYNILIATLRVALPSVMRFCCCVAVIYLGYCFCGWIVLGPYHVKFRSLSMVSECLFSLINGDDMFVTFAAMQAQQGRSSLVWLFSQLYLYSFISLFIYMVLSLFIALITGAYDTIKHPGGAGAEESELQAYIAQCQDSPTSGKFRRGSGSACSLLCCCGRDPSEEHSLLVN
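Tet-induced TRPML1-DL cells, 1,500 per well, cultured overnight, were loaded with a no-wash Ca2+ dye for 45–90 min. Calcium fluorescence was recorded on the FDSS for 110 s after compound addition, before the EC80 agonist (4 uM 54-4) was added.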
ClpP mod: qHTS Assay for Activators of ClpP; ATP-dependent Clp protease proteolytic subunit (Bacillus subtilis (strain 168)), P80244; purified B. subtilis ClpP, FRET peptide cleavage, 20 min; Potency, µM (top dose mostly 57.5 µM), for inactives: at the highest dose activity change, negative = active; hit rate 1.9% among 340,000; active = well fitted falling curve with a large enough effect; inconclusive = small, poorly fitted or top-dose-only effect; inactive = no such curve, though single readings can be large or run the other way; further: potency means the concentration at half of the fitted maximal effect; the source files actives as falling curves though it sought activators and does not explain the sign; nearly all actives have a fitted effect of over 65% in size; many hits overshoot -100%
Target sequence (P80244 whole entry, looked up): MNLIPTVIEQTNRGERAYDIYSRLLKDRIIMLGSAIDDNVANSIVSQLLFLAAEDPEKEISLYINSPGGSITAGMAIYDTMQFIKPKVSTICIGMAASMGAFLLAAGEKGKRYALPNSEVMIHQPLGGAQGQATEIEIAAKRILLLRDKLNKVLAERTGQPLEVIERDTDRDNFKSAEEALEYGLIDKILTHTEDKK
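Purified B. subtilis ClpP, 10 microg/mL final in Tris/HCl pH8 with KCl, BSA, glycerol and Tween-20, cleaved an Abz/nitrotyrosine-quenched decapeptide. Fluorescence (ex 320, em 430) was read at 0 and 20 min at room temperature. Delta was normalized to 5.8 microM ADEP and DMSO/no-enzyme controls.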
TRPV1 potentiator: HTS Assay for Compounds that Act as Potentiators of the Vanilloid Receptor 1; TRPV1-expressing cells, Fluo-8 calcium influx, capsaicin EC20 potentiation; host cell line not named in the record; control for the full effect not named in the record; potentiation, % at 8.33 µM; hit rate 0.02% among 320,000; active means potentiation above 80%; inconclusive means 30% to 80%; inactive means below 30%; further: 0% is about no effect
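TRPV1-expressing cells were cultured overnight at 35.5C and loaded with Fluo-8 calcium dye for 40 to 90 min at room temperature. After a 10 s baseline, compound was added and calcium influx was read kinetically for 3 min (ex 480/em 520 nm).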
TRPML1 blocker: qHTS for Inhibitors of the Human Mucolipin Transient Receptor Potential 1 (TRPML1) | Mucolipin-1 (Homo sapiens), Q9GZU1 | TRPML1-inducible cells, Ca2+ dye fluorescence, FDSS; active compounds read low; inhibition of EC80 agonist-evoked calcium signal | activity change, negative = inhibition, % (no concentration beside the values) | hit rate 0.02% among 390,000; in the data active means activity change below about -50%; inconclusive means about -30% to -50%; inactive means above about -30%;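 further: stimulus is agonist 54-4 at its EC80 concentration; on the % scale 0 is the no-effect control and ±100 the full control effect; compound concentration not given in the record; the text of the record puts the active cut at -80%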
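TRPML1-DL cells, Tet-induced overnight (~16 h, 37 °C) at 1,500 cells/well, were loaded with Ca8 no-wash dye plus quencher for 45-90 min at room temperature. Compounds were pinned during FDSS kinetic reading; agonist 54-4 at EC80 (4 uM final) then added.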
Sfp PPTase inh: qHTS Assay for Inhibitors of Bacillus subtilis Sfp phosphopantetheinyl transferase (PPTase); 4'-phosphopantetheinyl transferase ffp (Bacillus subtilis), Q9F4F7; Biochemical Sfp PPTase activity, qHTS; Potency, µM, for the others: max response, negative = inhibition, usual class: inhibitors; hit rate 3.5% among 310,000; active means well fitted inhibition curve with a large enough effect; inconclusive means small, poorly fitted or top-dose-only effect, or another doubt; inactive means no such curve, though single readings can be large or run the other way;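 further: the enzyme is Sfp with the accession as filed and its product quenches rhodamine fluorescence; potency means the concentration at half of the fitted maximal effect; 0% = enzyme reaction without inhibitor and -100% = no enzyme wells; top concentration of the series not given in the record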
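After 15 min at room temperature with compound, 15 nM Sfp received 5 uM rhodamine-CoA plus 12.5 uM BHQ-2-ybbR (50 mM Hepes pH 7.6, 10 mM MgCl2). Rate came from the fluorescence difference over 30 min, ex 525/em 598 nm.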
PINK1 modulator: A Quantitative High throughput Screen to Identify Chemical Modulators of PINK1 Expression; hit rate 0.2% among 410,000; PINK1 immunofluorescence, high-content cytometry, 24 h; Potency, µM (doses to about 76.6 µM), without a hit: at the highest dose activation (PINK1 increase), most hits filed as activators; AID 624263, 2012; active = well fitted activation curve with a large enough effect; inconclusive = small, poorly fitted or top-dose-only effect; inactive = flat fitted curve, though single readings scatter; cell line not stated here;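 further: potency means the concentration at half of the fitted maximal effect; % of control where 0% means no effect; nearly all actives have a fitted effect of over 65% in size; a mitochondrial uncoupler was the plate control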
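Stable cell line, 250 cells/well, 12 h attachment; compounds pinned at 5 concentrations, 24 h; CCCP control. Fixed with nuclear dye, primary antibodies 12 h at 10 degrees C, secondary plus cell stain; laser-scanning cytometer read.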
An asterisk follows results filed as active; [ ] = remark or other dose. Compounds were not picked by outcome; overall some 4.4% were active at least once.

`COC(=O)c1sccc1NC(=O)Nc1cc(C)ccc1C` gave Menin MLL FP FL -1.6, TRPML1 ag 0.6, TRPV1 potentiator -11, TRPML1 blocker 18, Sfp PPTase inh -5% and PINK1 modulator -1.7%.
`Cc1ccc(S(=O)(=O)N2CCN(c3cnn(C)c(=O)c3Cl)CC2)cc1` gave Menin MLL FP FL -1.6, TRPML1 ag -0.2, TRPV1 potentiator -3, TRPML1 blocker 1, Sfp PPTase inh 13% and PINK1 modulator 2.5%.
Screening N=c1sccn1CC(=O)N1N=C(c2ccc(Cl)cc2)CC1c1ccco1 (centres undefined) returned Menin MLL FP FL 0.6, TRPML1 ag -0.2, TRPV1 potentiator 8, TRPML1 blocker -21, Sfp PPTase inh -5% and PINK1 modulator 2.9%.
For CC(=O)c1ccc(NC(=O)[C@@H]2CCCN2C(=O)OC(C)(C)C)cc1 the results were Menin MLL FP FL 5.1, TRPML1 ag -0.9, TRPV1 potentiator 5, TRPML1 blocker -3, Sfp PPTase inh 11% and PINK1 modulator -1.6%.
For Cc1ccc(SCC(=O)OCC(=O)N(C)C2CCS(=O)(=O)C2)cc1C (centres undefined) the results were TRPML1 ag 0.1, ClpP mod 2.4%, TRPV1 potentiator -7, TRPML1 blocker -9 and PINK1 modulator -1.3%.
For COc1cccc(C(=O)Nc2cc3c(cc2Br)OCCCO3)c1 the results were Menin MLL FP FL 8.1, TRPML1 ag -1.3, ClpP mod 0.7%, TRPV1 potentiator -2, TRPML1 blocker -2, Sfp PPTase inh -6% and PINK1 modulator 1.6%.
`CC(=O)C1(O)CCC2C3CC(C)C4=CC(=O)C=CC4(C)C3(F)C(O)CC21C` (centres undefined) gave TRPML1 ag -0.3, ClpP mod 2.4%, TRPML1 blocker 9 and PINK1 modulator -4.1%.
`CCc1cccc(C)c1NC(=O)c1cc(S(=O)(=O)N(Cc2ccc(C(=O)OC)cc2)Cc2ccc(OC)c(OC)c2)ccc1F` gave TRPML1 ag 0.8, ClpP mod 0.3%, TRPML1 blocker 11 and PINK1 modulator 0.0%.
For COc1cc(C=O)ccc1OCc1cn(CC(=O)c2ccc(O)cc2)nn1 the results were TRPML1 ag 0.3, ClpP mod -0.9%, TRPML1 blocker 11 and PINK1 modulator -1.2%.
Cc1cc(COc2ccccc2OCc2cc(C)no2)on1 was read as Menin MLL FP FL 0.2, TRPML1 ag -1.0, ClpP mod 0.8%, TRPV1 potentiator 12, TRPML1 blocker 3, Sfp PPTase inh -1% and PINK1 modulator inconclusive.
`CCSc1ccccc1C(=O)n1nnc2ccccc21` gave Menin MLL FP FL -0.1, TRPML1 ag 5.2, ClpP mod -1.1%, TRPV1 potentiator 7, TRPML1 blocker -1, Sfp PPTase inh inconclusive and PINK1 modulator 4.6%[38.3 µM].
For COC(=O)N1N=C(c2ccc(Br)cc2)CC1(O)C(F)(F)F (centres undefined) the results were Menin MLL FP FL 2.4, TRPML1 ag 1.2, ClpP mod -1.7%, TRPV1 potentiator -8, TRPML1 blocker -11, Sfp PPTase inh 4% and PINK1 modulator 1.0%.
For COC(=O)CCC(C)N1CCC(Oc2ccc(C(=O)NCc3ccccn3)cc2)CC1 (centres undefined) the results were Menin MLL FP FL 6.6, TRPML1 ag 0.0, ClpP mod -1.3%, TRPV1 potentiator 6, TRPML1 blocker 4, Sfp PPTase inh 24% and PINK1 modulator -1.1%.
Screening CCOC(=O)N1CCN(c2ccc(C(=O)c3ccccc3)cc2F)CC1 returned Menin MLL FP FL -4.2, TRPML1 ag 1.3, ClpP mod -0.6%, TRPV1 potentiator -20, TRPML1 blocker 3, Sfp PPTase inh inconclusive and PINK1 modulator -0.8%.
`CCOc1ccc2nc(N3CCCC(C(=O)NCCc4ccc(OC)cc4OC)C3)sc2c1` (centres undefined) gave TRPML1 ag 0.9, ClpP mod 2.3%, TRPML1 blocker 9 and PINK1 modulator -2.0%.
For COc1ccc(CNc2ncncc2-c2ccoc2)c(OC)c1 the results were Menin MLL FP FL 12, Sfp PPTase inh 2% and PINK1 modulator -0.4%.
`Cc1c(NC(=O)Nc2ccccc2[N+](=O)[O-])c(=O)n(-c2ccccc2)n1C` gave Menin MLL FP FL -1.9, TRPML1 ag 1.2, ClpP mod 0.2%, TRPV1 potentiator 1, TRPML1 blocker 8, Sfp PPTase inh -4% and PINK1 modulator -0.5%.
Screening COc1ccccc1C(=O)N/C(=C\c1cn(C)c2ccccc12)C(=O)N1CCOCC1 returned Menin MLL FP FL 0.6, TRPML1 ag -0.3, ClpP mod 0.1%, TRPV1 potentiator 10, TRPML1 blocker 6, Sfp PPTase inh 6% and PINK1 modulator -0.2%.
O=C(/C=C/c1ccc([N+](=O)[O-])s1)N1CCCC1 was read as Menin MLL FP FL -1.8, TRPML1 ag 3.0, ClpP mod 0.5%, TRPV1 potentiator 4, TRPML1 blocker 5, Sfp PPTase inh -15% and PINK1 modulator inconclusive.
For Cc1ccc([C@H]2N[C@]3(CCCN(Cc4ccc(Cl)cc4)C3=O)[C@H]3C(=O)N(C)C(=O)[C@@H]23)cc1 the results were TRPML1 ag -0.6, ClpP mod 2.5%, TRPML1 blocker -5 and PINK1 modulator 3.2%.
`CC(C)(C(N)=O)c1ccccc1` gave Menin MLL FP FL 1.1, TRPML1 ag 0.4, TRPV1 potentiator -3, TRPML1 blocker 36, Sfp PPTase inh 15% and PINK1 modulator 3.8%.
Screening Cc1cccc(COCC(CC(C)C)N2CCN(C(=O)c3ccc(C(C)(C)C)cc3)CCC2=O)c1 (centres undefined) returned Menin MLL FP FL 0.1, TRPML1 ag 1.2, ClpP mod 0.4%, TRPV1 potentiator 0, TRPML1 blocker 28, Sfp PPTase inh -17% and PINK1 modulator -1.1%.
O=C(c1noc2c1CCc1ccccc1-2)N1CCCc2ccccc21 was read as Menin MLL FP FL inconclusive, TRPML1 ag 2.4, ClpP mod -2.9%, TRPV1 potentiator 5, TRPML1 blocker -9, Sfp PPTase inh -2% and PINK1 modulator 6.5%[38.3 µM].
CCOC(=O)c1[nH]c(C)c(C(=O)NCCCOC(C)C)c1C was read as Menin MLL FP FL 4.2, TRPML1 ag 0.8, ClpP mod 1.8%, TRPV1 potentiator -16, TRPML1 blocker -4, Sfp PPTase inh -6% and PINK1 modulator 4.0%[38.3 µM].
Cc1ccc(NC(=O)CSc2nc(N)cc(=O)[nH]2)cc1Cl was read as Menin MLL FP FL -7.1, TRPML1 ag 0.4, ClpP mod -0.3%, TRPV1 potentiator 16, TRPML1 blocker 4, Sfp PPTase inh 11% and PINK1 modulator 1.1%.
Screening O=C(c1ccccc1Br)N1CCCC(c2nc(-c3cccs3)no2)C1 (centres undefined) returned Menin MLL FP FL 0.1, TRPML1 ag 0.4, ClpP mod -1.0%, TRPV1 potentiator 3, TRPML1 blocker 4, Sfp PPTase inh inconclusive and PINK1 modulator 2.7%.
Screening Nc1nc(-c2ccc([N+](=O)[O-])cc2)cs1 returned Menin MLL FP FL 0.0, TRPML1 ag 1.0, ClpP mod 1.8%, TRPV1 potentiator -3, TRPML1 blocker -14, Sfp PPTase inh 9% and PINK1 modulator -0.8%.
CC(C)(C)c1ccc(C(=O)NNC(=O)Cc2ccccc2)cc1 was read as Menin MLL FP FL 3.1, TRPML1 ag 0.0, ClpP mod -0.5%, TRPV1 potentiator -12, TRPML1 blocker 37 and Sfp PPTase inh 15%.
Screening COc1ccc(-c2cc(-c3n[nH]c(=S)n3-c3ccccc3Cl)[nH]n2)cc1 returned Menin MLL FP FL -2.8, TRPML1 ag 0.4, TRPV1 potentiator 8, TRPML1 blocker 8, Sfp PPTase inh 10% and PINK1 modulator 2.5%.
`COCc1c(C(=O)N2CCN(c3ncccn3)CC2)oc2ccccc12` gave TRPML1 ag 1.3, ClpP mod -8.3%, TRPV1 potentiator -15, TRPML1 blocker 25 and PINK1 modulator 1.6%.
Screening Cn1c(=O)c2c(nc(N3CCCCCC3)n2CC(O)COc2ccc(Cl)cc2)n(C)c1=O (centres undefined) returned Menin MLL FP FL 5.4, TRPML1 ag 0.9, ClpP mod 0.0%, TRPV1 potentiator 4, TRPML1 blocker 0, Sfp PPTase inh 2% and PINK1 modulator -0.1%.
Screening CC1CCc2c(C(=O)Nc3cccc(-c4nn[nH]n4)c3)csc2C1 (centres undefined) returned Menin MLL FP FL -5.3, TRPML1 ag 0.7, ClpP mod -0.8%, TRPV1 potentiator 3, TRPML1 blocker 12, Sfp PPTase inh -13% and PINK1 modulator 2.1%.
For CCOc1ccc(Nc2cc(C)c(C#N)c3nc4ccccc4n23)cc1 the results were TRPML1 ag 0.5, ClpP mod 0.7%, TRPML1 blocker 3 and PINK1 modulator -4.0%.
`Cc1cnn(Cc2cccnc2)c1N` gave Menin MLL FP FL 0.8, TRPML1 ag 1.0, TRPV1 potentiator -4, TRPML1 blocker 14, Sfp PPTase inh 25% and PINK1 modulator 2.5%.
`CCOC(=O)c1oc2nc(CC(C)C)c3c(c2c1N)CCCC3` gave Menin MLL FP FL 1.6, TRPML1 ag 1.0, TRPV1 potentiator -13, TRPML1 blocker -6, Sfp PPTase inh -8% and PINK1 modulator 12%.
Screening CCOc1ccccc1NC(=O)COC(=O)COc1c(Cl)cc(Cl)c2ccc(C)nc12 returned TRPML1 ag 1.4, TRPML1 blocker 2 and PINK1 modulator 1.7%.
For COc1ccc(OC)c(NC(=O)N2CCC3(CC2)Oc2ccccc2C(=O)N3Cc2ccccc2F)c1 the results were TRPML1 ag 0.8, ClpP mod -5.2%, TRPML1 blocker -11 and PINK1 modulator -0.7%.
